INS promoter inh = TRM-6 insulin promoter activity inhibition. actives 0.9% (n = 130,000). TRM-6 cells (human fetal islet line), insulin promoter-eGFP reporter, imaging; reporter expression induced with tamoxifen. inhibition, % at 2 µM;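 active = inhibition above the mean plus 3 SD, with well images judged a real hit on visual review, cut at about 60% in these data, passing the limit was not always enough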
PKD1 kinase inh = PKD1 (human) kinase inhibition; Q15139; PKD1 kinase fluorescence polarization assay; inhibition, %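 (about 10 µM by stock and volumes)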; actives 0.056% (n = 200,000); AID 797;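 active = inhibition of 50% or more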;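 also: controls were vehicle for no effect and a reference inhibitor for full effect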
RGS16-Gao HTS = regulators of human RGS16-Galphao interaction; binding response (% of control), % at 10 µM; bead-based flow cytometry RGS16-Galphao binding, fluorescence; actives lie on both sides; O15492+P09471; AID 1441; actives 0.38% (n = 220,000);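 active = below 25% or above 175%, edge rows of some plates excepted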;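 also: Galphao activated by GDP with aluminum fluoride before binding; 100% = wells without compound and 0% = beads without RGS; some results beyond the cut were filed as inactive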
Target sequence (O15492 whole entry, looked up): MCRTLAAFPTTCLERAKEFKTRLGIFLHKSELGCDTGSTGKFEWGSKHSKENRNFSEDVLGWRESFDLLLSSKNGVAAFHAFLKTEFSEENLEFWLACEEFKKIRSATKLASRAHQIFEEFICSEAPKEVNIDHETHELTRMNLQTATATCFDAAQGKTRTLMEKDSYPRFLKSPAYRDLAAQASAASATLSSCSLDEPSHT
Target sequence (P09471 whole entry, looked up): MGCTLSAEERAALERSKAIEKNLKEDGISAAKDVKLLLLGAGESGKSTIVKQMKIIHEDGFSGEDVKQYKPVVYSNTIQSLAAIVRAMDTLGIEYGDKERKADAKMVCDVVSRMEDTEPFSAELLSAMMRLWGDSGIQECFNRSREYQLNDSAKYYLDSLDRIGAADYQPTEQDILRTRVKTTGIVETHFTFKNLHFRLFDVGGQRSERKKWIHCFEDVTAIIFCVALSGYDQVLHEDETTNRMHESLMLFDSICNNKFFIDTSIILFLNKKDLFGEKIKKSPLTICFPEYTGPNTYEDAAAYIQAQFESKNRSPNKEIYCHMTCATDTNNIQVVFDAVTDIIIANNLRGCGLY
HSV replic up = increases HSV replication in cells; HSV replication augmentation in cells, fold increase; AID 1956; maximum fold increase; actives 0.005% (n = 220,000);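 active = peak rise of 1.5-fold or more in the series; tested in PC3 cells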;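 also: first round at 10 µM; read as green reporter fluorescence; hits show the peak of a series up to 25 µM; 1 = signal of infected wells without compound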
GALR2 ag = activates the human galanin receptor 2. GALR2-expressing cells, agonist activation read-out. activation, %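 (tested at 5 µM)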. O43603. AID 803. actives 0.48% (n = 140,000);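 active = above mean plus 3 SD of all compounds, about 5% in these data, not always enough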;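 also: 0% = vehicle buffer wells and 100% = reference agonist at full effect; tested in CHO reporter cells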
Target sequence (O43603 whole entry, looked up): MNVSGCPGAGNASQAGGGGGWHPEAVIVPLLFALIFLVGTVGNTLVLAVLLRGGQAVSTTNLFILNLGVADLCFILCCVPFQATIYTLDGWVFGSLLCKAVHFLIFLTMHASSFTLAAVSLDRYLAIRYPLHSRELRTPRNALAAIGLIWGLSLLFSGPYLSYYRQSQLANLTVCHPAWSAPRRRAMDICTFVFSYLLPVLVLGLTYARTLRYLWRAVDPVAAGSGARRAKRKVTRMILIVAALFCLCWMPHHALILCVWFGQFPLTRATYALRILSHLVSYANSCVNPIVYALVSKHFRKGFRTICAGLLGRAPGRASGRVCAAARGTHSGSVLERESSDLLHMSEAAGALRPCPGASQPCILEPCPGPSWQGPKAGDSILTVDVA
INS promoter inh cell count = second read-out of INS promoter inh, no call of its own (marks repeat the call); normalized cell count, %; measured here: cell count, toxicity; reference of the scale not given here;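 cells exposed to compound for 48 h; stained nuclei by imaging scaled within each plate; lower means fewer cells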
HSV replic up primary fold = second read-out of HSV replic up, no call of its own (marks repeat the call); fold increase; compound at 10 µM; measured here: primary screen fold increase 10 uM; tested in PC3 cells;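 GFP signal in the first replicate; 1 = infected wells without compound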
* hit, by the source's call; i = inactive; / = no result given.

Under each structure – INS promoter inh	INS promoter inh cell count	PKD1 kinase inh	RGS16-Gao HTS	HSV replic up	HSV replic up primary fold	GALR2 ag
> O=C1c2ccccc2C(=O)N1CCSc1ncn[nH]1
 : -33	118	-12	97	i	0.96	-1.6
> O=c1cc(C(F)(F)F)oc2c1ccc1ccccc12
 : 62	104	-4	100	i	0.94	-0.8
> O=C(CCCn1c(=O)[nH]c2ccc(Br)cc2c1=O)NCc1ccc(Cl)cc1
 : /	/	1	101	i	0.95	/
> Cn1c(-c2ccccc2)c(C(=O)CCl)c2ccccc21
 : /	/	1	88	i	1	/
> O=C1Nc2ccc(Br)cc2/C1=C/C(=O)c1ccc2c(c1)OCO2
 : /	/	/	91	i	0.6	/
> COC(=O)c1sc2cnccc2c1N
 : /	/	11	99	i	1.1	-0.4
> Cc1noc(C)c1CSc1nnc2scc(-c3ccc(Cl)cc3)n12
 : -26	113	1	97	i	1.1	0.3
> Cc1ccc(CNC(=O)CCC(=O)Nc2nnc(C3CCCCC3)s2)cc1
 : /	/	/	106	i	1	/
> Cc1ccc(Cl)c(OCC(=O)NN2CCN(C)CC2)c1
 : /	/	/	104	i	0.94	/
> COCCNC(=O)c1onc(CSc2cc(C)ccc2C)c1C(=O)O
 : /	/	0	106	i	0.79	-2.7

Remaining list, next part.
Under each structure – INS promoter inh	INS promoter inh cell count	PKD1 kinase inh	RGS16-Gao HTS	HSV replic up	HSV replic up primary fold	GALR2 ag
> C=CCc1cccc2cc(C(=O)N(CC)CC)c(=O)oc12
 : -46	96	0	103	i	0.88	-2.3
> CC(C)OC(=O)CSc1nnc(-c2ccc([N+](=O)[O-])cc2)o1
 : /	/	3	111	i	0.95	/
> COc1ccccc1NC(=O)CSc1ccc(-c2cccs2)nn1
 : 6	77	3	98	i	0.93	/
> CCOC(=O)c1cc(CC)sc1NC(=O)C1CC1
 : 64	87	-6	84	i	0.86	-1.5
> Cc1ccccc1-n1c(=O)[nH]c(=O)c2c(N)c(C(=O)c3ccc(Cl)cc3)sc21
 : -29	140	12	102	i	0.83	0.5
> CCOc1ccc(-c2nnn(CCC(=O)O)n2)cc1OC
 : -26	116	8	102	i	1.1	0.5
> CN(CC(=O)NCCc1ccc(Cl)cc1)S(=O)(=O)c1ccc2c(c1)c(=O)n(C)c(=O)n2C
 : /	/	4	99	i	0.96	-2.1
> COc1cc(/C=C/C(=O)O)cc(Br)c1O
 : /	/	/	77	i	1	/
> O=C(CCN1C(=O)/C(=C/c2cccc(Br)c2)SC1=S)Nc1cccnc1
 : 33	123	-7	107	i	0.89	/
> COc1cccc(CC(NC(C)=O)C(=O)NC2CCN(c3c(Cc4ccccc4)c(C)nc4ncnn34)CC2)c1OC (centres undefined)
 : 38	108	-15	83	i	0.95	-0.7

The list continues.
Under each structure – INS promoter inh	INS promoter inh cell count	PKD1 kinase inh	RGS16-Gao HTS	HSV replic up	HSV replic up primary fold	GALR2 ag
> Cc1cc(C)cc(NC(=O)Cn2c(=O)oc3cc(S(=O)(=O)N4CCC(C)CC4)ccc32)c1
 : /	/	6	99	i	0.99	8.1
> COc1cc(/C=N/NC(=O)c2ccncc2)ccc1OC(=O)c1ccc([N+](=O)[O-])cc1
 : 100*	0.8*	-7	116	i	0.96	-0.8
> c1ccc(CSc2nnc(-c3ccco3)c(-c3ccco3)n2)cc1
 : /	/	2	89	i	0.99	-0.6
> CCCN1CCC(=O)N(CCSc2ccc(OC)cc2)CC1
 : /	/	/	100	i	0.71	/
> O=C(CCc1ccccc1)NCCSc1ccccc1
 : -12	87	-10	101	i	0.92	/
> COc1ccc(CN2CCCCCC2)c(C)c1C
 : -319	59	-2	112	i	0.85	-0.7
> Cc1cc(/C=N/NC(=O)c2cccc([N+](=O)[O-])c2)c(C)n1-c1ccccc1
 : 21	59	-1	136	i	0.94	-1.6
> COc1cc([N+](=O)[O-])ccc1NC(=O)c1cccc(NC(=O)C(C)C)c1
 : /	/	2	103	i	1	/
> CN(C)/C=C1\NC(=S)N(c2ccccc2)C1=O
 : /	/	-4	91	i	1	/
> CCOC(=O)c1ccc(NC(=S)NNC(=O)COC)cc1
 : -26	113	4	117	i	0.85	-2.2

Looked up by structure from the entries so far:
Under each structure – INS promoter inh	INS promoter inh cell count	PKD1 kinase inh	RGS16-Gao HTS	HSV replic up	HSV replic up primary fold	GALR2 ag
> COc1ccc(CN2CCCCCC2)c(C)c1C
 : -319	59	-2	112	i	0.85	-0.7
> O=C(CCc1ccccc1)NCCSc1ccccc1
 : -12	87	-10	101	i	0.92	/
> CCCN1CCC(=O)N(CCSc2ccc(OC)cc2)CC1
 : /	/	/	100	i	0.71	/
> Cc1cc(C)cc(NC(=O)Cn2c(=O)oc3cc(S(=O)(=O)N4CCC(C)CC4)ccc32)c1
 : /	/	6	99	i	0.99	8.1

Following part.
Under each structure – INS promoter inh	INS promoter inh cell count	PKD1 kinase inh	RGS16-Gao HTS	HSV replic up	HSV replic up primary fold	GALR2 ag
> O=C(CSc1nnc(-c2cc3ccccc3cc2O)n1Cc1ccco1)N1CCc2ccccc2C1
 : /	/	7	102	i	1.2	0.2
> FC(F)(F)c1nc(-c2ccncc2)ncc1-c1nnnn1-c1ccccc1
 : /	/	4	101	i	0.83	-2.0
> Cc1ccc(NC(=O)c2ccccc2OCC(=O)c2ccccc2)cc1
 : -60	88	5	98	i	0.82	2.1
> COC(=O)CSc1nnc(-c2cccnc2)o1
 : -5	134	-9	102	i	0.95	-0.7
> CN1CCN(c2nc(-c3ccccc3)nc(-c3ccccc3)c2C#N)CC1
 : /	/	-3	100	i	0.63	/
> CCS(=O)(=O)NCC(c1cccnc1)N1CCN(c2ccccc2OC)CC1 (centres undefined)
 : -29	118	9	108	i	0.99	-1.1
> COc1cc(CNc2ccc(C(=O)O)cc2)cc(Br)c1OCC(=O)NC(C)(C)C
 : /	/	0	82	i	1	-1.2
> COc1ccc(C2=NOC(C(=O)NCCCn3ccnc3)C2)cc1 (centres undefined)
 : -16	84	1	105	i	1	-2.9
> CCOC(=O)C1(CC2CCCCO2)CCN(Cc2nc3ccccc3[nH]2)CC1 (centres undefined)
 : /	/	-4	99	i	0.96	/
> CCC(=O)N1CCN(c2c(Cl)cccc2[N+](=O)[O-])CC1
 : -29	137	2	100	i	0.97	-2.0

The list continues:
Under each structure – INS promoter inh	INS promoter inh cell count	PKD1 kinase inh	RGS16-Gao HTS	HSV replic up	HSV replic up primary fold	GALR2 ag
> O=[N+]([O-])c1ccc(O)c(/C=N/n2cnnc2)c1
 : -103	130	-8	106	i	0.95	-0.3
> CCCCNC(=O)/C=C1\Sc2ccccc2NC1=O
 : -39	106	-17	100	i	0.98	0.3
> CCn1c(SCC(=O)NNC(=O)c2ccc(C)cc2)nnc1-c1ccncc1
 : -65	107	-10	/	i	0.94	-2.3
> CC(C)Nc1nc(Oc2ccc(Cl)cc2)cc(C(F)(F)F)n1
 : -7	85	4	86	i	0.96	-2.6
> CNC(=O)Nc1ccccc1NC(=O)NC
 : -5	127	-3	102	i	0.81	-2.4
> COc1ccc(C(=O)NCC2OCCc3ccccc32)cc1OC (centres undefined)
 : 0	83	-9	103	i	0.97	/
> COCCOC(=O)c1[nH]c2c(c1C)C(=O)CC(c1ccc(F)cc1)C2 (centres undefined)
 : /	/	-7	115	i	0.84	-0.2
> CN1C(=S)SC(/[N+]([O-])=C/c2ccc(Cl)cc2)C1(C)C (centres undefined)
 : /	/	/	105	i	0.93	/
> COC(=O)c1sc(C(F)(F)F)c(-c2ccccc2)c1S(=O)(=O)NC(C)(C)C
 : /	/	/	91	i	0.96	/
> CC1C/C(=N/N=C2/NC(=O)CS2)CC(C)(C)C1 (centres undefined)
 : 6	64	-11	94	i	0.95	-2.5

Of the compounds above, four contain a COOH group:
Under each structure – INS promoter inh	INS promoter inh cell count	PKD1 kinase inh	RGS16-Gao HTS	HSV replic up	HSV replic up primary fold	GALR2 ag
> COCCNC(=O)c1onc(CSc2cc(C)ccc2C)c1C(=O)O
 : /	/	0	106	i	0.79	-2.7
> CCOc1ccc(-c2nnn(CCC(=O)O)n2)cc1OC
 : -26	116	8	102	i	1.1	0.5
> COc1cc(/C=C/C(=O)O)cc(Br)c1O
 : /	/	/	77	i	1	/
> COc1cc(CNc2ccc(C(=O)O)cc2)cc(Br)c1OCC(=O)NC(C)(C)C
 : /	/	0	82	i	1	-1.2

Next structures follow.
Under each structure – INS promoter inh	INS promoter inh cell count	PKD1 kinase inh	RGS16-Gao HTS	HSV replic up	HSV replic up primary fold	GALR2 ag
> Cc1cccc(N2CCN(Cc3oc(CO)cc(=O)c3O)CC2)c1C
 : -25	105	3	102	i	1	-2.0
> CC12CCC(=O)N1C(C(=O)OCC(=O)Nc1cccc(S(=O)(=O)N3CCCCCC3)c1)CS2 (centres undefined)
 : 15	121	12	106	i	1.1	-0.3
> COCCn1c(SCC(=O)Nc2sc(C)c(C)c2C#N)nnc1-c1ccc(OC)cc1
 : 27	106	3	99	i	0.85	-0.4
> COc1ccc(/C=N/N=C2/NC(=O)C(CC(=O)NC(C)C)S2)cc1 (centres undefined)
 : 21	125	3	98	i	0.85	/
> COc1cccc(-c2cc(C(F)(F)F)c(C#N)c(=O)[nH]2)c1
 : /	/	6	100	i	0.96	/
> COc1ccccc1NC(=O)C1=C(C)Nc2nc(-c3cccs3)nn2C1c1cccnc1 (centres undefined)
 : /	/	-2	57	i	1	-1.4
> CCCC(=O)OCC(=O)Nc1ccc(OC(F)F)cc1
 : 8	87	-1	108	i	0.93	-1.2
> COCCOc1ccc(C(F)(F)F)cc1NC(=O)COC(=O)c1c(C)noc1C
 : 14	94	-3	109	i	0.9	-1.4
> Nc1cc(N)cc(C(=O)OCC(=O)Nc2cc(S(=O)(=O)N3CCCCC3)ccc2Cl)c1
 : 15	60	-5	100	i	0.95	/
> COCCCNC(=O)CSc1ccc(Cl)cc1
 : 19	127	-13	94	i	1	-2.8

(continued)
Under each structure – INS promoter inh	INS promoter inh cell count	PKD1 kinase inh	RGS16-Gao HTS	HSV replic up	HSV replic up primary fold	GALR2 ag
> COc1ccccc1C(CC(=O)N1CCCC1)c1ccc2c(c1)OCO2 (centres undefined)
 : -33	38	-6	110	i	1	/
> Cc1ccc(-c2nc(C#N)c(NCc3cccc4c3OCO4)o2)cc1
 : -11	95	2	101	i	1	-2.5
> O=C(N/N=C/c1ccncc1)c1ccc(OCc2ccccc2)cc1
 : /	/	/	103	i	1.2	/
> COc1ccc(C(=O)c2c[nH]c3ccccc23)cc1
 : -21	128	4	106	i	0.86	0.1
> Cc1ccc(Cn2nnnc2CN2CCC(NC(=O)C(C)(C)C)CC2)cc1
 : 42	90	5	99	i	1.1	/
> CC(=O)c1cc(OC(=O)N2CCOCC2)ccc1OC(=O)N1CCOCC1
 : -9	156	-10	97	i	1	-0.4
> Cc1ccc(NS(=O)(=O)c2ccc(CCC(=O)NCCO)cc2)cc1
 : -37	109	5	97	i	1.1	-1.1
> COc1ccc(/C=C\C(=O)CC(O)(c2ccccc2)C(F)(F)F)cc1 (centres undefined)
 : -6	133	-7	100	i	0.76	0.0
> CC1CN(c2nc3c(c(=O)[nH]c(=O)n3C)n2Cc2ccccc2F)CC(C)O1 (centres undefined)
 : /	/	-9	97	i	0.89	-1.9
> O=C(NCC(=O)N(c1ccccc1F)C(C(=O)NCC1CCCO1)c1ccccc1)c1ccco1 (centres undefined)
 : /	/	-7	90	i	0.8	-2.5

(listing goes on)
Under each structure – INS promoter inh	INS promoter inh cell count	PKD1 kinase inh	RGS16-Gao HTS	HSV replic up	HSV replic up primary fold	GALR2 ag
> COc1cccc(NC(=S)N2CCn3c(nc4ccccc43)C2)c1
 : -21	91	0	100	i	0.94	/
> Clc1ccc(C2=Nn3c(nnc3-c3n[nH]c4c3CCC4)SC2)cc1Cl
 : -26	191	4	100	i	0.74	5.2*
> CC(C)c1cc(Nc2cccc(O)c2)cc(C(C)C)c1O
 : -27	112	-6	/	i	1.2	0.5
> O=C(Oc1ccccc1Cl)c1ccc(-n2cncn2)nc1
 : -47	100	-13	102	i	0.8	-1.1
> O=C(O)Cn1nc(-c2ccccc2)oc1=O
 : 46	90	-2	103	i	0.92	-0.3
> O=C(CSc1ccc(-c2ccc(F)cc2)nn1)NCCc1ccccc1
 : -22	104	-9	100	i	1.2	/
> Nn1c(SCC(=O)NC2CCCc3ccccc32)nnc1-c1ccc(Cl)cc1Cl (centres undefined)
 : /	/	0	101	i	1.1	0.8
> CC(=O)Nc1ccc(S(=O)(=O)N2CCN(CCC#N)CC2)cc1
 : -29	110	-3	100	i	0.77	-1.2
> Cc1cc(C)c(NC(=O)c2cc(C(=O)O)ccc2C(=O)O)c([N+](=O)[O-])c1
 : 13	89	1	104	i	0.95	/
> CC1SCCN1S(=O)(=O)c1ccc2ccccc2c1 (centres undefined)
 : -50	114	-1	111	i	0.87	0.1
> Brc1ccc2c(c1)C(c1cccnc1)=NNC(c1cccs1)=N2
 : 28	114	-5	102	i	0.82	-0.2

Source: PubChem
